NPYLR7 agonist = mosquito NPYLR7 agonism; HEK293T NPYLR7/Galpha15, GCaMP6s calcium fluorescence; activation, % at 10 µM; 270,000 compounds, 0.15% hits; in the data active = activation above about 40%;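 note: 0% = vehicle and 100% = reference agonist at the receptor; some compounds past the cut are filed as inactive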
NPYLR7 agonist max-min = recorded beside NPYLR7 agonist, whose call it bears; activation, %; measured here: Max-Min RFU normalised activation; some inactives read as strong as hits;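 span of the calcium signal over five minutes; 0% = vehicle and 100% = native peptide agonist; compound fluorescence can raise it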
* marks the source's active call; other numbers are inactive results; & = joins results of further samples. Some of the compounds tested. The share of hits here may be higher or lower than overall.

Second line of a record: NPYLR7 agonist max-min	NPYLR7 agonist
> CC(CC(=O)N1CCN(C(=O)c2n[nH]c3ccccc23)CC1)C1CC1 (stereo not drawn)
 : -8	-8
> CCC(C)N(C)CCNS(=O)(=O)C1CCOCC1 (stereo not drawn)
 : -1	4
> CCOC(=O)N1CCC(NC(=O)c2cc(=O)c(OCc3cccc(OC)c3)co2)CC1
 : -3	-2
> Clc1ccc(C2Nc3ccc(Cl)cc3C(c3ccccc3)O2)cc1 (stereo not drawn)
 : 11	6
> CCc1nc(NC2CCC(N)CC2)c2cnn(-c3ccc(C)cc3)c2n1 (stereo not drawn)
 : 17	32
> COc1cccc(Cn2ccnc2CN(C(=O)C2CC2)C(C)C)c1
 : 24	18
> O=C(Cn1cnc([N+](=O)[O-])n1)NC1CCCC1
 : -1	5
> CCn1c(=O)c2c(nc3n2CC(C)CN3c2cccc(C)c2)n(C)c1=O (stereo not drawn)
 : -7	-7
> COc1ccc2c(CC(=O)NC3CCCCC3)coc2c1
 : -8	-5
> NCCSc1c(-c2ccc(F)cc2)[nH]c2ccccc12
 : -13	-4
> Cc1nc(SCC(=O)NC2CCS(=O)(=O)C2)c2c3c(sc2n1)CCC3 (stereo not drawn)
 : -2	1
> CCc1nc2ccc(C(=O)NC3CCN(C)CC3)cn2c1N(CC)Cc1ccc(OC)c(OC)c1
 : 10	6
> CC1=C[C@@H](CNC(=O)C2CC2)[C@H](C(C)C)C[C@H]1CC(=O)N1CCOCC1
 : -13	-9
> COc1cccc(NC(=O)N(C)Cc2ccc(C3CC3C)o2)c1 (stereo not drawn)
 : -5	-5
> Cc1cc(NC(=O)COc2ccccc2N2CCCC(C)C2)no1 (stereo not drawn)
 : -20	-18
> COCc1c(Br)c(C)nc(OCC(=O)N/N=C\c2cc(Br)c(OCc3ccccc3)c(Br)c2)c1C#N
 : 10	8
> CCOC(=O)C1CCN(c2nc3c(S(=O)(=O)c4ccc(CC)cc4)nnn3c3ccsc23)CC1
 : 9	11
> O=c1ccc(-c2cccnc2)nn1CCNS(=O)(=O)c1ccc2c(c1)OCCO2
 : -6	5
> Cn1c(C2CCCN(S(C)(=O)=O)C2)nn(Cc2cccc(Cl)c2)c1=O (stereo not drawn)
 : 5	-3
> O=C(C1CCNC1)N1CCOc2c(O)cc(-c3csc4ccccc34)cc2C1 (stereo not drawn)
 : 1	2
> CC(=O)c1ccc(C(=O)N(CCCN2CCOCC2)c2nc3c(F)cc(F)cc3s2)cc1
 : -9	-5
> CNC(=O)C(C#N)C(=O)C1=Cc2cccc(OC)c2OC1 (stereo not drawn)
 : 6	11
> NC(=O)c1nc(-c2ccncc2)nc2c1[nH]c(=O)n2-c1cccc(Cl)c1
 : 15	-2
> O=C1CSC(c2ccc(C(F)(F)F)cc2)N1CCN1CCNCC1 (stereo not drawn)
 : -5	0
> CC(C)(C(=O)N1CC[C@H]2CC[C@@H](C1)N2)c1ccccc1
 : -5	-5
> O=C(c1cncc(-c2ccccc2CN2CCOCC2)n1)N1CCCCC1
 : -2	-1
> CCOc1ccc(NC(=O)CC(=O)N2CCCn3cncc3C2)cc1
 : 6	10
> O=C(Oc1coc(CSc2ncccn2)cc1=O)c1ccc([N+](=O)[O-])cc1
 : -8	-11
> CCc1ccc(S(=O)(=O)N(C)C(Cc2ccccn2)C(C)(C)C)cc1 (stereo not drawn)
 : 1	2
> COc1cccc(Cn2c(=O)c(C(=O)NCc3ccc(F)cc3)nn(-c3ccc(C(F)(F)F)cc3)c2=O)c1
 : 11	7

Pulled one by one from the list above (two):
Second line of a record: NPYLR7 agonist max-min	NPYLR7 agonist
> O=C1CSC(c2ccc(C(F)(F)F)cc2)N1CCN1CCNCC1 (stereo not drawn)
 : -5	0
> CNC(=O)C(C#N)C(=O)C1=Cc2cccc(OC)c2OC1 (stereo not drawn)
 : 6	11

Next records.
Second line of a record: NPYLR7 agonist max-min	NPYLR7 agonist
> Cc1nc2c(c(C)nn2C)c(C)c1CC(=O)O
 : 0	1
> O=C(NCc1ccccn1)c1ccc(CSc2nc(N3CCCC3)cc(C(F)(F)F)n2)o1
 : -1	10
> CNC(=O)[C@H]1CN(S(=O)(=O)c2ccccc2)[C@]2(C)C(=O)N(CC(=O)N(C)C)c3ccccc3[C@H]12
 : 29	23
> O=C(O)c1cnn(Cc2ccccc2)c1C(F)(F)F
 : -5	-4
> Cc1cccn2cc(C(=O)N3CCCC(N4CCc5ccccc5C4)C3)nc12 (stereo not drawn)
 : 13	16
> CCOc1ccc(CN2CCN(CC3CCCCC3)C(CCO)C2)cc1CO (stereo not drawn)
 : 2	3
> O=C(/C=C/c1ccccc1)NC1CCN(c2ccccc2C(=O)N2CCN(C3CCCC3)CC2)CC1
 : 10	0
> Cn1c(NCc2ccccc2F)nc2cc(-c3ccsc3)sc2c1=O
 : 4	8
> Cc1noc(-c2cccnc2)c1C(=O)NCc1ccsc1
 : -5	-8
> COCCCN(CC(=O)N(CCc1c[nH]c2ccccc12)Cc1ccccc1)C(=O)C(Cl)Cl
 : 28	17
> CCOC(=O)C1(CCc2ccccc2)CCN(C(=O)c2cc(C)nc3c(C)cccc23)CC1
 : -1	2
> O=C(c1cc(Cl)c[nH]1)N(Cc1ccccc1)C1CC1
 : 5	8
> C=C(C)Cn1c(=O)c2c(nc3n(CCC)c(C)cn23)n(C)c1=O
 : 3	7
> COC(=O)Cn1c(=NC(=O)C2=COCCO2)sc2cc(S(N)(=O)=O)ccc21
 : 5	6
> Cc1ccc(C)c(Cn2ccnc2CN(C(=O)c2ccc(F)cc2)C(C)C)c1
 : 9	19
> O=C(CSC1=Nc2ccccc2CS1)N1CCc2ccccc21
 : 12	14
> Cc1cc(C)c(CN2CCN(Cc3ncccc3C)CC2)c(-n2cccn2)c1
 : -7	-5
> CCCCc1ccc(NC(=O)c2cnc3n(c2=O)CCS3)cc1
 : -6	-6
> CCN(CC)c1ccc(NC(=O)NC(c2ccc(OC)cc2)C2CC2)cn1 (stereo not drawn)
 : 9	13
> CC(C)(C)c1ccc(-c2nc3n(c(=O)c2C#N)CCS3)cc1
 : -3	-2

Compound profiles, from the list above. Screens in order: NPYLR7 agonist max-min, NPYLR7 agonist
Listed for Cc1cc(C)c(CN2CCN(Cc3ncccc3C)CC2)c(-n2cccn2)c1 → -7, -5
Listed for CC(C)(C)c1ccc(-c2nc3n(c(=O)c2C#N)CCS3)cc1 → -3, -2
Listed for CCCCc1ccc(NC(=O)c2cnc3n(c2=O)CCS3)cc1 → -6, -6
Listed for COC(=O)Cn1c(=NC(=O)C2=COCCO2)sc2cc(S(N)(=O)=O)ccc21 → 5, 6

The list goes on:
Second line of a record: NPYLR7 agonist max-min	NPYLR7 agonist
> O=C(Nc1nnc(C2CC2)s1)C1CCCC1
 : 11	4
> Clc1cccc(NC2=NCCC2)c1
 : 2	3
> COc1ccc(CC(=O)Nc2ccc(Nc3cc(-n4cccn4)nc(C)n3)cc2)cc1
 : -11	-8
> O=C(C1=COCCO1)N1CCN(c2nc3ccccc3s2)CC1
 : -3	1
> CN(C)c1nc2c(c(-c3ccccc3CN3CCOCC3)n1)CCCC2
 : 2	2
> CC1CCc2[nH]c3c(C(=O)OCc4ncc(Cl)n4C)cccc3c2C1 (stereo not drawn)
 : -3	-3
> CCNc1cc(NCCNC(=O)CC)nc(C)n1
 : -1	2
> COc1ccc2[nH]cc(C3CCN(S(=O)(=O)c4cc(C(F)(F)F)ccc4C(F)(F)F)CC3)c2c1
 : 4	6
> C=CCn1c(C)csc1=Nc1cccc(Br)c1
 : 10	4
> CC1(C(=O)Nc2ccc3c(c2)OCCO3)CCN1C(=O)C1(c2ccccc2)CC1 (stereo not drawn)
 : 4	5
> COC(=O)CCSc1nnc(-c2cc(OC)c(OC)c(OC)c2)o1
 : 6	15
> COc1ccc([N+](=O)[O-])cc1NC(=O)CSc1nc2ncccn2n1
 : 13	22
> CN(C)c1ccc(C(CNS(C)(=O)=O)N2CCN(c3ccccc3)CC2)cc1 (stereo not drawn)
 : 1	4
> Nc1nsc(N2CCN(Cc3cc4ccccc4nc3Cl)CC2)n1
 : 3	7
> COCc1nc(N2CCN(C(=O)C3CCCO3)CC2)c2cnn(C)c2n1 (stereo not drawn)
 : 3	8
> O=C(Nc1ccccc1Oc1cccnc1)C1CCCN(Cc2ccon2)C1 (stereo not drawn)
 : 2	9
> Cc1ccccc1Nc1nc(N)nc(COc2ccc3c(c2)OCO3)n1
 : 23	0
> Cc1cc(S(=O)(=O)NCc2ccco2)c(Cl)cc1Cl
 : 0	3
> CCC(C)CN(C)C(=O)Nc1ccc(OC2CCOCC2)c(C)c1 (stereo not drawn)
 : 6	6
> COC(=O)c1ccc(NC(=O)C2CC(=O)N(c3ccc(C)c(F)c3)C2)s1 (stereo not drawn)
 : 2	5
> Cc1ccc(C)c(NC(=O)CCNC(=O)c2cnn3ccn(C)c23)c1
 : -3	3
> CC(C)(C)c1ccc(C(=O)N2CCN(C(C(=O)N3CCOCC3)C3CCCC3)CC2)cc1 (stereo not drawn)
 : 3	-1
> Cc1ccc(-n2c(C(C)N(C)C(=O)Nc3cccc(Br)c3)nc3cc(Cl)ccc3c2=O)cc1 (stereo not drawn)
 : -6	0
> CCCC[n+]1c2ccccc2cc2ccccc21
 : -1	5
> COc1ccc(-c2ccc(=O)n(CCNS(=O)(=O)c3ccccc3C(F)(F)F)n2)cc1
 : -4	-4
> Cc1cccc(Cn2c(=O)c(C(=O)N3CCCC3)nn(-c3ccc(C(C)C)cc3)c2=O)c1
 : 7	-1
> CCN(Cc1cnn(C)c1)Cc1sccc1C
 : 8	10
> NC(=O)N1c2ccccc2C=Cc2ccccc21
 : -2&-8&-7&-11	0&-4&-3&8
> COc1ccc(CN2CCC(C(=O)NC(c3ccc(F)cc3)c3cnccn3)CC2)cc1 (stereo not drawn)
 : 0	15
> CN[C@@H]1[C@H](O[C@H]2[C@H](O[C@@H]3[C@@H](O)[C@H](O)[C@@H](N=C(N)N)[C@H](O)[C@H]3N=C(N)N)O[C@@H](C)[C@]2(O)C=O)O[C@@H](CO)[C@H](O)[C@H]1O
 : -1	2
> COc1ccc2c(c1)C(=O)N(CCc1ccc(S(=O)(=O)NC(=O)NC3CCCCC3)cc1)C(=O)C2(C)C
 : -12	5
> CCOc1ccc(N2C(=O)CC(N3CCN(c4ncccn4)CC3)C2=O)cc1 (stereo not drawn)
 : -7	-5
> Cn1c(=S)[nH]c2cc(C(=O)NCc3ccc(Cl)cc3)ccc2c1=O
 : -6	-4
> CC(Nc1ccc(F)cc1)C(=O)N1c2ccccc2CC1C (stereo not drawn)
 : 1	1
> CCOc1ccc(CN(C)C(=O)c2ccccc2O)cc1
 : -1	1
> O=C(c1cc(-c2ccccc2F)nn1-c1ccc(Cl)cc1)N(CCc1ccccc1)Cc1ccccc1
 : 12	-1
> NS(=O)(=O)N1CCC(C(=O)Nc2ccc(-c3ccccc3)cc2F)CC1
 : 1	4
> CCOC(=O)C1(Cc2ccccc2)CCN(Cc2cc(OC)c3c(c2)OCO3)CC1
 : -1	2
> CCc1cc2c(=O)c(-c3ccccc3)c(C)oc2cc1O
 : -22	-21
> O=C(NCC12CC3CC(C1)CC(CNC(=O)C(F)(F)F)(C3)C2)C(F)(F)F
 : 1	3
> COc1ccc(S(=O)(=O)N(CC(=O)N2CCCCC2)c2ccc(C)cc2)cc1OC
 : -8	-20
> COCCN(Cc1c(C)nn(C)c1C)C(=O)[C@H]1Cc2ccccc2CN1
 : 14	-2

Gathered by group: those above containing bromine (3)
Second line of a record: NPYLR7 agonist max-min	NPYLR7 agonist
> COCc1c(Br)c(C)nc(OCC(=O)N/N=C\c2cc(Br)c(OCc3ccccc3)c(Br)c2)c1C#N
 : 10	8
> C=CCn1c(C)csc1=Nc1cccc(Br)c1
 : 10	4
> Cc1ccc(-n2c(C(C)N(C)C(=O)Nc3cccc(Br)c3)nc3cc(Cl)ccc3c2=O)cc1 (stereo not drawn)
 : -6	0
